FGF22 binding – binders of human FGF22 protein, primary screen, FGF22 synaptogenesis inhibitor project, biophysical, thermal shift, single point; calls only at 9.99 µM; recombinant FGF22 thermal shift, SYPRO orange fluorescence; percent of sucrose octasulfate shift, DMSO zero; 340,000 compounds, 1.5% hits; Fibroblast growth factor 22 (Homo sapiens), Q9HCT0;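 active = melting point raised past a set limit in the mean and every replicate; three in four hits are not shown here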
Target sequence (Q9HCT0 whole entry, looked up): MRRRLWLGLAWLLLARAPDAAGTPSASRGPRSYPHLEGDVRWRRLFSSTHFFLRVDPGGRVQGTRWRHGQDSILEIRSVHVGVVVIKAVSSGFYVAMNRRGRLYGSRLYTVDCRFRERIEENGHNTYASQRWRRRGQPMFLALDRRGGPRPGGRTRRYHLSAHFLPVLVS
Ecoli rRNA inh – reduced GFP signal of wild-type E. coli, primary screen, bacterial rRNA inhibitor project, GFP/RFP fluorescence, OD600, single point | E. coli WT GFP vs humanized-ribosome RFP mutants, 24 h; active compounds read low; DMSO median 0, no signal -100 | GFP signal change (wild-type ribosome), % (no concentration beside the values) | 350,000 compounds, 1.6% hits | AID 720706, 2013;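 active = significant combined selectivity score with lowered wild-type GFP, culture density cut under 30%, mutant RFP and density less affected; inactive = any of these conditions unmet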; also: one replicate is shown; some compounds called inactive have numbers as strong as hits
Ecoli rRNA inh OD600 – second read-out of Ecoli rRNA inh, no call of its own (marks repeat the call); OD600 change, %; measured here: OD600 growth;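 optical density of the mix in the first replicate; 0 = DMSO median and -100 = no signal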
Ecoli rRNA inh RFP – also measured in Ecoli rRNA inh; calls as there; RFP signal change, %; measured here: RFP humanized mutant strains;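 first replicate; 0 = DMSO median and -100 = no signal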
* hit, by the source's call; i = inactive; & = joins results of further samples. This is a subset. The share of hits here may be higher or lower than overall.

SMILES	FGF22 binding	Ecoli rRNA inh	Ecoli rRNA inh OD600	Ecoli rRNA inh RFP
Cc1noc(C)c1S(=O)(=O)N(C)C[C@@H]1OCCCC[C@@H](C)Oc2ccc(NC(=O)CCC(F)(F)F)cc2C(=O)N([C@H](C)CO)C[C@@H]1C	i	2	7	-0.7
Nc1nc2c(ncn2[C@@H]2O[C@H](C(=O)NCC3CCCCC3)[C@@H](O)[C@H]2O)c(=O)[nH]1	i	9	8	-0.6
Cc1ccccc1-c1cnc2c(c1)C(=O)N([C@@H](C)CO)C[C@H](C)[C@@H](CN(C)C(=O)c1ccccc1)O2	i	-2	-3	1.8
CN1CCCCC(NC(=O)CCCl)C1=O (configuration not stated)	i	-7	-6	1.0
Nc1ccn([C@@H]2O[C@H](C(=O)N3CCN(C(=O)N4CCCCC4)CC3)[C@@H](O)[C@H]2O)c(=O)n1	i	26	15	3.5
CC(=O)NC[C@@H]1[C@@H](c2ccccc2)[C@@H](CO)N1C(=O)Cc1ccncc1	i	3	10	-2.4
COCC(=O)Nc1ccc2c(c1)[C@@H]1C[C@H](CC(=O)N3CCCCC3)O[C@@H](CO)[C@@H]1O2	i	2	8	-2.1
C[C@@H]1CN([C@H](C)CO)S(=O)(=O)c2ccc(-c3cccnc3)cc2O[C@H]1CN(C)CC1CC1	i	0	5	0.0
COCC(=O)Nc1ccc2c(c1)[C@@H]1C[C@@H](CC(=O)N3CCCCC3)O[C@@H](CO)[C@@H]1O2	i	0	6	0.5
COc1ccc(NC(=O)Nc2ccc3c(c2)[C@@H]2C[C@@H](CC(=O)N4CCOCC4)O[C@@H](CO)[C@@H]2O3)cc1	i	0	5	-3.7
Cc1cccc(S(=O)(=O)N2CCC[C@H]2C(=O)N2CCC[C@@H]2C(=O)NCc2ccccc2)c1	i	1	2	3.6
CCCNC(=O)C[C@@H]1CC[C@H]2[C@H](COc3ccc(NC(=O)Cc4cccs4)cc3C(=O)N2C)O1	i	-1	2	-2.0
COc1ccc2c3c([nH]c2c1)[C@@H](CO)N(Cc1ccccc1F)CC31CN(C(=O)C2CCC2)C1	i	-5	-6	4.3
Fc1cccc(-c2ccc(C3[C@H]4CNC[C@@H]3N4Cc3ccccn3)cc2)c1 (some centres not stated)	i	-7	-12	-2.9
CN1C(=O)c2cc(NC(=O)c3ccc(F)c(F)c3)ccc2OC[C@H]2O[C@H](CC(=O)O)CC[C@H]21	i	-2	0	0.1
C[C@H](CO)N1C[C@H](C)[C@H](CN(C)Cc2ccccc2)OCCCC[C@H](C)Oc2ccc(NC(=O)c3ccccc3)cc2C1=O	i	4	-5	-0.7
Cc1ccc(S(=O)(=O)N(C)[C@H]2C[C@H]3c4cc(-c5ccc6c(c5)OCO6)ccc4CCN3C[C@H]2[C@H](C)O)cc1	i	29	9	12
COc1ccc(C(=O)N(C)[C@H]2C[C@H]3c4[nH]c5c(-c6ccccc6)cccc5c4CCN3C(=O)[C@H]2[C@H](C)O)cc1	i	26	13	8.6
CN(C(=O)c1cccc(NC(=O)Cc2ccc(NC(=O)C3CCN(C(=O)CCc4ccccc4)CC3)cc2)c1)C1CCCC1	i	-6	-8	2.1
Cn1cc([C@]2(O)C(=O)Nc3ccc(Br)cc32)c2ccccc21	i	-30	-32	-3.8
CCCCc1nnn2c1C1c3cc(Br)ccc3CCN1C(=O)C2 (configuration not stated)	i	-27	-48	-9.9
COc1ccc(S(=O)(=O)N2CC[C@H]3[C@H](CO)Nc4ccc(-c5ccccc5F)cc4[C@H]32)cc1	i	-3	-43	25
CN1C[C@H](O)COC[C@H]2O[C@H](CC(=O)NC3CCC3)CC[C@@H]21	i	7	18	3.2
C[C@H]1CN([C@@H](C)CO)C(=O)Cc2cc(NC(=O)CCC(F)(F)F)ccc2O[C@H]1CN(C)S(=O)(=O)c1cn(C)cn1	i	-3	-1	-3.6
COc1ccccc1CN1[C@H](CO)[C@@H]2c3ccccc3N(C(=O)C3CCC3)C[C@@H]21	i	-3	-14	3.4

One compound at a time, from the list above. Order of screens: FGF22 binding, Ecoli rRNA inh, Ecoli rRNA inh OD600, Ecoli rRNA inh RFP
COc1ccc(C(=O)N(C)[C@H]2C[C@H]3c4[nH]c5c(-c6ccccc6)cccc5c4CCN3C(=O)[C@H]2[C@H](C)O)cc1 as listed: i, 26, 13, 8.6
COc1ccc(S(=O)(=O)N2CC[C@H]3[C@H](CO)Nc4ccc(-c5ccccc5F)cc4[C@H]32)cc1 as listed: i, -3, -43, 25
CCCNC(=O)C[C@@H]1CC[C@H]2[C@H](COc3ccc(NC(=O)Cc4cccs4)cc3C(=O)N2C)O1 as listed: i, -1, 2, -2.0
Cn1cc([C@]2(O)C(=O)Nc3ccc(Br)cc32)c2ccccc21 as listed: i, -30, -32, -3.8

(cont.)
SMILES	FGF22 binding	Ecoli rRNA inh	Ecoli rRNA inh OD600	Ecoli rRNA inh RFP
C[C@@H]1CN([C@@H](C)CO)C(=O)c2cc(NC(=O)Cc3ccccc3)ccc2O[C@@H](C)CCCCO[C@@H]1CN(C)S(=O)(=O)c1cccs1	i	-3	19	-2.1
C[C@@H]1CCCCO[C@H](CN(C)Cc2ccc(C(F)(F)F)cc2)[C@H](C)CN([C@H](C)CO)C(=O)c2cc(NC(=O)Nc3cccc4ccccc34)ccc2O1	i	-5	14	-5.6
O=C(NCc1ccccc1)C(CCc1ccccc1)n1c(=O)c(-c2ccccc2)nc2ccccc21 (configuration not stated)	i	0	-6	4.8
C/C=C/c1ccc(C2[C@H]3CNC[C@@H]2N3C(=O)Nc2ccccc2Cl)cc1 (some centres not stated)	i	-3&2	-7&-3	1.9&-4.8
C[C@H]1CN([C@@H](C)CO)C(=O)Cc2cc(NS(=O)(=O)c3cccs3)ccc2O[C@H]1CN(C)Cc1ccncc1	i	2	-9	0.0
C[C@H](O)[C@@H]1C(=O)N2CCc3c([nH]c4c(-c5ccccc5)cccc34)[C@@H]2C[C@@H]1N(C)C(=O)Nc1ccccc1	i	-28	-47	-1.4
Cc1noc(C)c1S(=O)(=O)Nc1ccc2c(c1)C(=O)N([C@@H](C)CO)C[C@@H](C)[C@@H](CN(C)C(=O)CCCN(C)C)OCCCC[C@H](C)O2	i	-1	1	-2.1
CCCCNC(=O)c1nc(-c2cnccn2)oc1-c1ccc(Cl)cc1	i	-2	12	0.4
COc1ccc2c3c(n(C)c2c1)[C@H](CO)N(C(=O)Nc1cccc(F)c1)CC31CCN(Cc2nccs2)CC1	i	0	-40	27
C[C@@H]1CCCCO[C@H](CN(C)CC2CC2)[C@@H](C)CN([C@H](C)CO)C(=O)c2cc(NS(=O)(=O)c3cccs3)ccc2O1	i	5	9	0.0
COc1ccc(NC(=O)Nc2ccc3c(c2)C(=O)N([C@H](C)CO)C[C@H](C)[C@H](CN(C)C(=O)Nc2ccc4c(c2)OCO4)O3)cc1	i	0	1	4.4
COc1ccc(S(=O)(=O)Nc2cccc3c2O[C@@H](CN(C)S(=O)(=O)c2ccc(C)cc2)[C@H](C)CN([C@H](C)CO)C3=O)cc1	i	0	3	1.1
Cc1ccc(CN2C(=O)CSCC2(C)C(=O)NC(C)C)cc1 (configuration not stated)	i	7	4	-1.1
O=C(/C=C(\Nc1cccc(C(F)(F)F)c1)c1ccccc1)c1ccccc1	i	-9	-12	1.4
COc1ccc(S(=O)(=O)Nc2ccc3c(c2)C(=O)N([C@H](C)CO)C[C@@H](C)[C@@H](CN(C)S(=O)(=O)c2ccc(OC)cc2)OCCCC[C@H](C)O3)cc1	i	-4	3	0.2
CCCNC(=O)Nc1ccc2c(c1)C(=O)N(C)[C@H]1CC[C@H](CC(=O)NC)O[C@@H]1CO2	i	0	-5	1.1
C[C@@H]1CN([C@@H](C)CO)C(=O)c2cc(NC(=O)Nc3cccc4ccccc34)ccc2O[C@@H](C)CCCCO[C@H]1CN(C)S(=O)(=O)c1cccs1	i	1	0	-2.3
Cc1noc(C)c1NC(=O)N(C)C[C@H]1OCCCC[C@@H](C)Oc2ccc(NC(=O)Nc3ccccc3)cc2C(=O)N([C@@H](C)CO)C[C@H]1C	i	-1	-6	1.0
CCCNC(=O)N1[C@@H]2CN(C(=O)Nc3cccc(F)c3)c3ccccc3[C@@H]2[C@@H]1CO	i	-45	-56	-7.3
Cc1cc(N2CCN(S(C)(=O)=O)C[C@H]2C)ccc1N1CCN(Cc2ccccc2)[C@H](C)C1	i	-21	-12	5.8
CCS(=O)(=O)N1CCCCN2[C@H](CO)[C@H](c3ccc(-c4ccc(C(=O)N(C)C)cc4)cc3)[C@H]2C1	i	5	6	-3.4
C[C@@H]1CCCCO[C@@H](CN(C)Cc2ccc(C(=O)O)cc2)[C@@H](C)CN([C@@H](C)CO)C(=O)c2cc(NS(=O)(=O)c3ccccc3)ccc2O1	i	3	-1	-0.5
C=CCCC(=O)N1C[C@H]2CCN(C)[C@H]2C[C@H]1c1ccccc1Br	i	15	5	0.2
CCc1cnc(N2[C@H](CO)[C@@H](c3ccc(C#CCC4CCCC4)cc3)[C@@H]2C#N)s1	i	4	21	1.3
O=C(C[C@H]1CC[C@@H]2[C@H](COC[C@H](O)CN2Cc2cc(F)cc(F)c2)O1)Nc1nccs1	i	-15	-14	5.1

Further records.
SMILES	FGF22 binding	Ecoli rRNA inh	Ecoli rRNA inh OD600	Ecoli rRNA inh RFP
CC(C)(C)NC(=O)C(c1ccccc1F)n1c(=O)c(-c2ccco2)nc2ccccc21 (configuration not stated)	i	0	5	0.4
CCCCOc1ccc(C(=O)NC2CCCCN(C)C2=O)cc1 (configuration not stated)	i	2	6	3.5
C[C@@H]1CN([C@@H](C)CO)C(=O)c2cc(NC(=O)Nc3ccccc3)ccc2O[C@@H](C)CCCCO[C@H]1CN(C)Cc1ccc(C(F)(F)F)cc1	i	-4	2	-2.2
CCCNC(=O)C[C@H]1CC[C@@H]2[C@@H](COc3ccc(NC(=O)c4ccc(OC)cc4)cc3C(=O)N2C)O1	i	-1	9	2.7
CCNC(=O)[C@H]1[C@H](CO)[C@H]2Cn3c(ccc(-c4cccc(F)c4)c3=O)[C@H]2N1Cc1cc(F)ccc1F	i	-3	-8	1.3
C[C@@H]1CN([C@@H](C)CO)C(=O)c2cc(NC(=O)NC3CCCCC3)ccc2O[C@@H](C)CCCCO[C@H]1CN(C)CC1CCCCC1	i	1	5	-3.0
O=C(C[C@H]1CC[C@@H]2[C@H](COC[C@H](O)CN2C(=O)c2cccnc2)O1)NCC1CC1	i	3	24	4.4
O=C(NCCc1ccccc1Cl)[C@@H]1CCCN1C(=O)[C@@H](NS(=O)(=O)c1ccc(F)cc1F)c1ccccc1	i	-25	-35	1.4
C[C@@H]1ON(C)[C@H]2C[C@H]3c4cc(-c5ccc(F)cc5)ccc4CCN3C[C@@H]12	i	-10	-2	4.6
CCCNC(=O)C[C@H]1CC[C@@H]2[C@@H](COc3ccc(NC(=O)COC)cc3C(=O)N2C)O1	i	5	-2	2.5
C/C=C/c1ccc([C@@H]2[C@@H](CO)N[C@@H]2CN(CC(C)C)C(=O)c2ccccn2)cc1	i	-4	1	4.0
CNC(=O)C[C@@H]1CC[C@H]2[C@H](COc3ccc(NC(=O)c4cscn4)cc3C(=O)N2C)O1	i	0	2	-2.9
COCC(=O)N1C[C@@H]2[C@H](c3ccccc31)[C@H](CO)N2Cc1ccccc1	i	1	13	-0.1
Cc1cc(C(=O)Nc2ccc3c(c2)C(=O)N(C)[C@@H]2CC[C@@H](CC(=O)O)O[C@H]2CO3)no1	i	5	14	-0.9
O=C(N[C@H](C(=O)N1CCC[C@H]1C(=O)NC1CCCC1)c1ccccc1)C1CC1	i	6	16	4.3
C[C@@H]1CCCCO[C@@H](CN(C)S(=O)(=O)c2cccs2)[C@H](C)CN([C@H](C)CO)C(=O)c2cc(NC(=O)Nc3cccc4ccccc34)ccc2O1	i	-2	8	-1.2
C[C@@H]1CCCCO[C@@H](CN(C)C(=O)CCCN(C)C)[C@@H](C)CN([C@@H](C)CO)C(=O)c2cc(NC(=O)Nc3ccc(C(F)(F)F)cc3)ccc2O1	i	3	2	4.1
C/C=C/c1ccc([C@H]2[C@@H](CNC(=O)c3ccccn3)N(C(C)=O)[C@H]2CO)cc1	i	-3	-6	3.3

Quoted at random: 6 records from the list.
SMILES	FGF22 binding	Ecoli rRNA inh	Ecoli rRNA inh OD600	Ecoli rRNA inh RFP
C[C@@H]1CN([C@@H](C)CO)C(=O)c2cc(NC(=O)Nc3ccccc3)ccc2O[C@@H](C)CCCCO[C@H]1CN(C)Cc1ccc(C(F)(F)F)cc1	i	-4	2	-2.2
O=C(NCCc1ccccc1Cl)[C@@H]1CCCN1C(=O)[C@@H](NS(=O)(=O)c1ccc(F)cc1F)c1ccccc1	i	-25	-35	1.4
C[C@@H]1CCCCO[C@@H](CN(C)C(=O)CCCN(C)C)[C@@H](C)CN([C@@H](C)CO)C(=O)c2cc(NC(=O)Nc3ccc(C(F)(F)F)cc3)ccc2O1	i	3	2	4.1
C[C@@H]1CCCCO[C@@H](CN(C)S(=O)(=O)c2cccs2)[C@H](C)CN([C@H](C)CO)C(=O)c2cc(NC(=O)Nc3cccc4ccccc34)ccc2O1	i	-2	8	-1.2
C[C@@H]1CN([C@@H](C)CO)C(=O)c2cc(NC(=O)NC3CCCCC3)ccc2O[C@@H](C)CCCCO[C@H]1CN(C)CC1CCCCC1	i	1	5	-3.0
CNC(=O)C[C@@H]1CC[C@H]2[C@H](COc3ccc(NC(=O)c4cscn4)cc3C(=O)N2C)O1	i	0	2	-2.9

Assay outcomes: PubChem, Broad Institute
